# Assay outcomes deposited in PubChem BioAssay by several laboratories.
# Env fusion inh – HIV envelope-mediated fusion inhibition | HeLa-JRFL Env/CEM21 cell fusion, luciferase | inhibition, % at 12.3 µM | actives 1.1% (n = 360,000) | AID 651610;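 active = mean replicate inhibition score of at least 50 and every replicate individually at or above 50; inconclusive = only one of the two criteria met; inactive = mean below 50 and not all replicates reaching 50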;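 also: 0% = plate neutral controls and 100% = maraviroc near 300 nM; one replicate is shown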
# PABP polyA inh – blocks human PABP binding to poly(A) RNA; AID 2014; inhibition, % at 35 µM; actives 1% (n = 290,000); P11940; fluorescence polarization;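 active = 50% or more with normal probe brightness, or confirmed in later tests; inconclusive = above 50% with abnormal brightness, or retests that disagree; inactive = below 50% or failed in later tests; about a fifth of its hits are not listed in these tables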;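 also: calls also rest on retests at 20 µM and on dose response follow-up; controls were probe without protein and protein plus probe with vehicle; some compounds called inactive have numbers as strong as hits; many hits fall short of the cut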
# Target sequence (P11940 whole entry, looked up): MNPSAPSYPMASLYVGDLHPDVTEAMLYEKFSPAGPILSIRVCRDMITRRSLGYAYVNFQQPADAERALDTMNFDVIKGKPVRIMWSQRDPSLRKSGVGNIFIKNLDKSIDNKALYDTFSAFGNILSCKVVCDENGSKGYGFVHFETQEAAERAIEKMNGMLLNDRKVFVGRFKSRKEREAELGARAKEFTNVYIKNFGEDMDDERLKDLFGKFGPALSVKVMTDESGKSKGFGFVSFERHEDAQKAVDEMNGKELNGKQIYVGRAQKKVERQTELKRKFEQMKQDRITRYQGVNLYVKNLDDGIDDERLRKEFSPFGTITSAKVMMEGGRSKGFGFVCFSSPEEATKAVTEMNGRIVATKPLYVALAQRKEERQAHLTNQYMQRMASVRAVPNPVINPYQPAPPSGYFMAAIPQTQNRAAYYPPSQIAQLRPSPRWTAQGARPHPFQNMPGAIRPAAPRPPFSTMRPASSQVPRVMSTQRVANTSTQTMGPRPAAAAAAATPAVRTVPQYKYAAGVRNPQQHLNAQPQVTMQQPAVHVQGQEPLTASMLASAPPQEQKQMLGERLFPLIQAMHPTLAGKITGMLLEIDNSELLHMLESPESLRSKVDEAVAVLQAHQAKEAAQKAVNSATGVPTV
# Rce1 inhib – inhibitors of yeast Ras-converting enzyme | actives 0.27% (n = 290,000) | yeast membranes, quenched prenylated peptide cleavage fluorescence | AID 2563 | Q03530 | calls only;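 active = fall in fluorescence gain of 50% or more versus controls, with final raw signal at or below 3038400; inconclusive = same 50% fall but final raw signal above 3038400; inactive = fall in fluorescence gain under 50%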;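 also: plate controls were neutral control wells for no effect and wells lacking membranes for full effect; tested at 10 µM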
# MT1-MMP act inh – inhibitors of human MT1-MMP activation; HT1080 RFP-PRO-GFP cells, GFP/RFP ratio fluorescence, overnight; percent of plate control window, DMSO zero; actives 0.061% (n = 360,000); GFP/RFP ratio change, % at 20 µM; AID 651647;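 active = GFP/RFP ratio change of at least 30% with cell ATP level not reduced by more than half and red fluorescence within 50% of control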; also: strong numbers were not always called active
#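 Read-out: GFP/RFP fluorescence ratio; Test system: RFP-PRO-GFP reporter HT1080 cells; Compound dosing: single-point 20 µM compound, 1% DMSO; Times: overnight compound exposure at 37 °C.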
# eIF4H FP inh – inhibitors of RNA binding by human eIF4H | actives 0.94% (n = 290,000) | eIF4H fluorescence polarization binding assay | inhibition, % at 35 µM;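 active = 50% or more with normal probe brightness, or confirmed in later tests; inconclusive = above 50% with abnormal brightness, or retests that disagree; inactive = below 50% or failed in later tests; about a fifth of its hits are not listed in these tables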;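 also: calls also rest on retests at 20 µM and on dose response follow-up; 0% = protein and probe with vehicle and 100% = probe without protein; strong numbers were not always called active; many hits fall short of the cut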
# Yeast UUG start – yeast start codon fidelity modulation; S. cerevisiae UUG-firefly luciferase reporter, luminescence/redox ratio; activity score, % at 18.7 µM; actives 0.13% (n = 350,000); AID 602363;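 active = replicate mean at a twofold rise or more, about +100% in these data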;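 also: firefly luciferase made from a UUG start codon reports start codon fidelity; reporter light over untreated wells divided by growth signal over untreated wells; some hits fall short of that in this replicate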
# CSC inhib – cancer stem cell inhibition; cancer stem cell-like cells viability, luminescence; inhibition, % at 7.5 µM; actives 1.1% (n = 300,000); AID 2717;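 active = mean at 75% or more and at least half the replicates too; inconclusive = mean and replicates disagree; tested in HMLE shEcad cells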;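 also: 0% = median of negative and 100% = median of positive control wells; the first replicate is given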
# MT1-MMP act inh RFP – recorded beside MT1-MMP act inh, whose call it bears; RFP signal change, %; measured here: RFP expression control read;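 0 = vehicle wells; hits needed this value within 50% of zero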
# The depositor's hits bear a star; i = inactive; ? = inconclusive; nt = no result given.
entry	Compound	Env fusion inh	PABP polyA inh	Rce1 inhib	MT1-MMP act inh	MT1-MMP act inh RFP	eIF4H FP inh	Yeast UUG start	CSC inhib
1	CC(=O)NCCNc1nc(NC(C)C)nc2ccsc12	-13	nt	nt	3	7	nt	-10	nt
2	CCc1nc(SCC(=O)N2CCc3cc(OC)c(OC)cc3C2)c(C#N)cc1C	nt	nt	i	-1	6	nt	10	21
3	C=CCn1c(SCc2ccc(OC)cc2)nnc1-c1cccnc1	-43	-3	i	3	3	10	-18	-8
4	N#Cc1c(Cn2cncn2)nc(=O)n(-c2ccccc2)c1N	-15	-10	i	-2	-2	-6	-9	-16
5	CC(/C=N/NC(=O)c1ccc(CN2c3cccc4cccc(c34)S2(=O)=O)cc1)c1ccccc1 (centres undefined)	nt	3	i	1	1	-12	nt	-2
6	CC(=O)Nc1ccc(NC(=O)C(C)OC(=O)C(C)SCC(=O)Nc2ccc(C)cc2)cc1 (centres undefined)	-8	nt	i	2	1	nt	10	6
7	COc1ccc2nc(N3CCCC(C(=O)NCCCN4CCN(C)CC4)C3)sc2c1 (centres undefined)	14	-2	i	0	0	-9	-8	-15
8	COc1cc(C(=O)N/C(=C\c2cn(C)c3ccccc23)C(=O)NCCCn2ccnc2)cc(OC)c1OC	-5	-2	i	2	5	-9	nt	-4
9	CCCCCNC(=O)C(C#N)c1nc2ccccc2nc1N1CCCC1 (centres undefined)	nt	?	i	-15	3	?	-8	-1
10	CCCc1cc(=O)[nH]c(SCC(=O)Nc2cc3c(cc2C(C)=O)OCO3)n1	nt	0	i	0	3	-4	-13	-9
11	O=C(CSc1nnc(SCc2ccccc2)s1)NNC(=S)Nc1ccccc1	11	7	i	5	5	10	-20	-1
12	NC1=NC[C@H](c2ccccc2)N1CCc1cccc(F)c1	-11	-1	i	1	6	-2	-8	4
13	CN1CCN(c2ccc(CNS(=O)(=O)c3ccc(F)cc3Cl)cc2)CC1	-6	-3	i	-4	2	-4	-15	46
14	Cc1nn(CC(=O)NCCc2ccc(Cl)cc2)c(C)c1[N+](=O)[O-]	nt	-2	i	-5	-2	-13	-13	-4
15	Cc1cc(C(=O)N2CCN(C(=O)c3ccco3)CC2)ccc1[N+](=O)[O-]	-11	-4	i	1	0	-1	nt	-4
16	COc1ccc(C(=O)NCC(C)NC(=O)c2ccc(OC)cc2)cc1 (centres undefined)	4	nt	nt	5	0	nt	nt	16
17	O=C(COC(=O)c1ccccc1F)Nc1ccc(S(=O)(=O)N2CCOCC2)cc1	16	nt	nt	0	1	nt	-1	-18
18	CCOC(=O)c1c(O)c2ccccc2n(C)c1=O	6	1	i	3	6	-3	-14	-12
19	O=C1NC2(CCCCO2)CO1 (centres undefined)	-4	11	i	0	3	0	-16	8
20	O=c1cc(-c2ccccc2)nc2nc(CCc3ccccc3)[nH]n12	nt	-8	i	8	5	-7	-19	-8
21	O=S(=O)(c1cnc(Cl)c(Cl)c1)N1CCc2ccccc21	i	-5	i	-3	-2	-8	-17	14
22	O=C(NCc1ccccn1)c1cc2c(ccc3ccccc32)oc1=O	3	2	i	8	5	-2	-13	-11
23	Cc1ccc(S(=O)(=O)N/N=c2\sc3ccccc3n2C)cc1	nt	3	i	2	4	-9	nt	-8
24	COc1cccc(CN2CC(C(=O)NCCCn3cccn3)CCC2=O)c1 (centres undefined)	-3	-6	i	0	1	4	-10	-1
25	CC1CCCCC1NS(=O)(=O)c1ccc2c(c1)CC(=O)N2C (centres undefined)	-12	2	i	0	3	0	-11	-1
26	Cc1c(C(=O)N2CCCc3ccccc32)oc2ccccc12	-10	-1	i	-2	-3	2	-16	-4
27	COc1ccc(C(=O)Nc2cnc3ccccn3c2=O)cc1	-36	-9	i	-1	-2	4	nt	2
28	CC(=O)c1sc2nc(-c3ccc(C)cc3)c3c(c2c1N)CCCC3	-5	-8	i	-7	-3	13	-15	36
29	N#C/C(=C\c1cn[nH]c1-c1ccccc1)C(=O)NC1CCCCCC1	20	-2	i	0	-4	-4	-12	nt
30	O=C(Nc1ccc(O)c(-c2nc3ccccc3s2)c1)c1cccs1	24	0	i	6	2	6	nt	0
31	COc1cc(C(=O)NCc2cc(C)nc3ccccc23)cc(OC)c1OC	-12	-10	i	3	-2	-2	nt	15
32	CC(=O)Nc1ccc(S(=O)(=O)N2CCN=C2SCc2cccc(C)c2)cc1	-2	-8	i	3	-5	2	7	3
33	CCn1c(CC(=O)Nc2ccccc2C)nnc1SCC(=O)NC1=NCCS1	-4	0	i	-3	2	6	-17	-7
34	NC(=O)CC(NC(=O)c1ccc(Br)cc1)c1ccc(NC2CCCCC2)c([N+](=O)[O-])c1 (centres undefined)	-14	-16	i	8	1	5	-6	4
35	Cc1occc1C(=O)NN1C(=O)C2C3CCC(O3)C2C1=O (centres undefined)	nt	4	i	3	4	8	-11	4
36	Clc1ccc(-c2ccc(C=Nc3ccc(N4CCOCC4)cc3)o2)cc1	-133	5	i	11	17	-10	-27	23
37	O=C(CCN1CCOCC1)NNC(=O)Nc1cccc(Cl)c1	6	2	i	-5	2	-9	-14	-6
38	CCN(CCNS(=O)(=O)c1ccc2c(c1)oc(=O)n2C)c1ccccc1	-89	-6	i	1	4	-6	-15	1
39	CCOC(=O)C1(C)CCCN1C(=O)c1cccs1 (centres undefined)	5	nt	nt	1	3	nt	-5	nt
40	CCCCC(=O)Nc1c(-c2ccc(OC)c(OC)c2)c(=O)c2ccccc2n1C	5	-6	i	1	3	-4	-9	nt
41	CC12CN3CC(C)(CN(C1)C3c1c[nH]c3ccccc13)C2=O (centres undefined)	-27	-5	i	1	1	-1	nt	-6
42	COc1cc(C(=O)NCC(=O)OCC(=O)N2CCc3ccccc32)cc(OC)c1OC	-14	-8	i	-2	-2	8	nt	-20
43	CC(NC(=O)c1ccco1)C(=O)OCc1cccc(Cl)c1 (centres undefined)	6	2	nt	6	-2	3	-16	8
44	Cc1ccc(NC2=NC(c3ccc(F)cc3)n3c(nc(C)cc3=O)N2)c(C)c1 (centres undefined)	-4	-2	i	-3	-1	-9	-7	8
45	COc1ccc(S(=O)(=O)N2CCOCC2)cc1N=Nc1sc(N)nc1-c1ccccc1	19	-8	i	18	-8	-12	nt	2
46	Oc1ccc(-c2nc3ccccc3s2)c(O)c1	-65	0	i	-9	-4	0	nt	67
47	COC(=O)c1c(NC(=O)CSc2nnnn2-c2ccc3c(c2)OCO3)sc(C)c1C	-47	11	i	0	-2	-6	3	-14
48	CCc1ccc2oc(C(=O)NCC(c3ccc(OC)cc3)N3CCCCC3)c(C)c2c1 (centres undefined)	18	nt	i	-2	-7	nt	-2	85*
49	COc1ccc(/C=N\NC(=O)c2ccccc2Br)cc1COc1c(F)c(F)cc(F)c1F	45	-3	i	7	-9	-7	-5	1
50	Cc1nnc(NC(=O)CSc2ccc([N+](=O)[O-])cn2)s1	14	13	i	2	4	-3	nt	-11
51	COc1cccc(CCc2nnc(N)s2)c1	3	4	i	0	3	8	-12	-6
52	Cc1cc(N(C)C)cc(C)[n+]1[O-]	nt	3	i	0	3	1	-15	0
53	O=C(COC(=O)/C=C/c1cccc(Br)c1)Nc1ccc(Cl)cn1	9	nt	nt	0	-1	nt	-11	nt
54	CC(=O)Nc1cc(NC(=O)CCCC(=O)O)ccc1Cl	nt	-11	i	-7	-4	-5	-9	-26
55	CCCC(=O)Nc1ccc(S(=O)(=O)N2CCc3ccccc32)cc1	-19	nt	nt	3	-5	nt	-5	nt
56	COc1ccc(NC(=O)C(C)N2C(=O)c3ccccc3C2=O)cc1S(=O)(=O)N1CCOCC1 (centres undefined)	-4	-2	i	2	3	-7	nt	-11
57	O=C1/C(=C/c2cccc(Br)c2)SC(=S)N1/N=C/c1cc([N+](=O)[O-])ccc1O	-1	15	i	4	-3	42	nt	17
58	O=C(c1c(F)cccc1F)N(Cc1ccccn1)C1CC1	-32	6	i	-5	-3	-8	-13	-5
59	COc1ccc(C(=O)N2CCNC(=O)C2CC(=O)Nc2ccc(C)cc2)cc1 (centres undefined)	-13	5	i	10	6	-4	nt	-28
60	O=C(O)C1CCCCC1C(=O)NCCc1c[nH]c2ccccc12 (centres undefined)	nt	2	i	-3	4	-1	-8	-8

# Continued.
entry	Compound	Env fusion inh	PABP polyA inh	Rce1 inhib	MT1-MMP act inh	MT1-MMP act inh RFP	eIF4H FP inh	Yeast UUG start	CSC inhib
61	CC(C)CCOc1cccc(OCC(=O)N(C)C2CCS(=O)(=O)C2)c1 (centres undefined)	-112	0	nt	2	-1	2	-4	-4
62	O=C(O)C1CCCCC1C(=O)Nc1cc(C(F)(F)F)ccc1Cl (centres undefined)	-14	-6	i	-2	1	-1	nt	nt
63	CN1CCN(S(=O)(=O)c2ccc(NC(=O)c3ccccc3Cl)cc2)CC1	2	0	i	1	-1	9	-20	1
64	O=C(Nc1cccc2cccnc12)c1ccc(Br)cc1Br	nt	-8	i	0	-1	1	-10	-11
65	CC(=O)C[C@H](O)CC(=O)[C@@H]1OC(=O)[C@@H](C)C/C=C\Cc2ccccc21	-2	nt	nt	-1	4	nt	4	nt
66	CNC(=O)c1cc(S(=O)(=O)N(C)C)ccc1Cl	4	-16	i	5	5	1	-26	-6
67	Fc1ccc(-c2nc3ccc(Br)cn3c2Cc2ccsc2)cc1	-5	nt	nt	1	3	nt	-14	nt
68	COc1ccc(C(C)=O)cc1COC(=O)c1ccc(S(=O)(=O)N(C)C)cc1	2	2	i	6	1	4	nt	-7
69	CCOC(=O)c1cc(-c2ccccc2C)n(CC2CC(c3ccc(OC)cc3)=NO2)n1 (centres undefined)	26	nt	nt	6	-5	nt	-14	nt
70	COC(=O)c1ccc(OCCOc2ccccc2)cc1	nt	-13	i	0	3	2	-5	-7
71	Cc1cccnc1C(NC(=O)C1CCN(CCCc2ccccc2)CC1)c1ccc(F)cc1 (centres undefined)	2	nt	nt	-1	2	nt	-9	nt
72	COc1ccc(N2CCN(C3CCCN(Cc4cccc(C(C)=O)c4)C3)CC2)cc1 (centres undefined)	-19	-10	i	0	2	2	-10	27
73	O=C(NCCN1CCOCC1)c1cccc(S(=O)(=O)N(Cc2ccccc2)c2ccccc2)c1	nt	nt	i	-3	0	nt	nt	-3
74	Cc1ccc(NC(=O)COc2ccc3c(c2)OCO3)c(C)c1	-32	nt	nt	3	-2	nt	-10	nt
75	O=C(O)Cc1ccc(NC(=O)c2ccc(NC(=O)C3CC3)cc2)cc1	3	11	i	-1	0	1	-16	10
76	O=C(/C=C/c1ccccc1[N+](=O)[O-])N1CCOCC1	0	-4	i	-11	0	0	1	8
77	CC(=O)c1ccc(N2CCN(C(=O)C3(S(=O)(=O)c4ccc(Cl)cc4)CC3)CC2)cc1	5	-3	i	7	-6	0	8	-4
78	Cc1ccc(S(=O)(=O)CC(O)COc2ccc(F)cc2Cl)c(C)c1 (centres undefined)	3	0	i	2	9	2	nt	-9
79	O=C1NCC(COCc2ccccc2)O1 (centres undefined)	nt	-6	nt	-1	-1	-5	-12	-17
80	C/C(=C/CCC(C)C1CCC2(C)C3CCC4C(C)(C)C(=O)CCC4(C)C3=CCC12C)C(=O)O (centres undefined)	nt	-2	i	nt	nt	-5	nt	nt
81	COCCNC(=O)c1ccc(Cn2c(SCC(=O)NCC3CCCO3)nc3ccc(Br)cc3c2=O)cc1 (centres undefined)	-6	12	i	-3	-4	0	-19	25
82	CC(C)CN1CCC(CN(C)Cc2nc(-c3cnccn3)no2)CC1	-5	-3	i	6	7	2	-13	2

# These rows are one share of the data; count on the stated rates, not on these rows.
